# CSC inhib: cancer stem cell inhibition; inhibition, % at 7.5 µM; hit rate 1.1% among 300,000; cancer stem cell-like cells viability, luminescence; AID 2717;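 active = mean at 75% or more and at least half the replicates too; tested in HMLE shEcad cells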;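 note: 0% = median of negative and 100% = median of positive control wells; the first replicate is given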
# eIF4H FP inh: inhibitors of RNA binding by human eIF4H; Q15056; inhibition, % at 35 µM; hit rate 0.94% among 290,000; eIF4H fluorescence polarization binding assay; AID 2012;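 active = 50% or more with normal probe brightness, or confirmed in later tests; about a fifth of its hits are not listed in these tables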;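 note: calls also rest on retests at 20 µM and on dose response follow-up; 0% = protein and probe with vehicle and 100% = probe without protein; strong numbers were not always called active; many hits fall short of the cut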
# Rce1 inhib: yeast Ras-converting enzyme inhibition; Q03530; yeast membranes, quenched prenylated peptide cleavage fluorescence; calls only; hit rate 0.27% among 290,000;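 active = fall in fluorescence gain of 50% or more versus controls, with final raw signal at or below 3038400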;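 note: plate controls were neutral control wells for no effect and wells lacking membranes for full effect; tested at 10 µM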
# Target sequence (Q03530 whole entry, looked up): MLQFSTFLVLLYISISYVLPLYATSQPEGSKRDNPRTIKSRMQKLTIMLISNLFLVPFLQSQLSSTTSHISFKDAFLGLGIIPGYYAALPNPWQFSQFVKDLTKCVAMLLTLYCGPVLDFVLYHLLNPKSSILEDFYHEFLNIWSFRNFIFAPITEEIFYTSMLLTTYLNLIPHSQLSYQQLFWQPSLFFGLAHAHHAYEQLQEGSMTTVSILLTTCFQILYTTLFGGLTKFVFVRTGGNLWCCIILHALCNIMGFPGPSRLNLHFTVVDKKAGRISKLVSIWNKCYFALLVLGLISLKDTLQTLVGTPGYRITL
# HIV Env fusion: inhibitors of HIV Env-mediated cell fusion; inhibition, % at 12.3 µM; HeLa-JRFL Env/CEM21 cell fusion, luciferase; hit rate 1.1% among 360,000;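 active = mean replicate inhibition score of at least 50 and every replicate individually at or above 50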;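 note: 0% = plate neutral controls and 100% = maraviroc near 300 nM; one replicate is shown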
# MT1-MMP act inh: blocks activation of human MT1-MMP. GFP/RFP ratio change, % at 20 µM. AID 651647. HT1080 RFP-PRO-GFP cells, GFP/RFP ratio fluorescence, overnight; percent of plate control window, DMSO zero. hit rate 0.061% among 360,000. P50281;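 active = GFP/RFP ratio change of at least 30% with cell ATP level not reduced by more than half and red fluorescence within 50% of control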; note: strong numbers were not always called active
#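 Test system: HT1080 cells expressing an RFP-PRO-GFP fluorescent reporter construct / Compound dosing: single-point 20 µM compound, 1% DMSO / Schedule: cells overnight before dosing, compound overnight, 37 °C, 5% CO2 / Evaluation: GFP/RFP fluorescence ratio / Control set: DMSO and RFP-L50D-GFP cell wells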
# PABP FP inh: PABP-poly(A) binding inhibition. hit rate 1% among 290,000. PABP-poly(A) RNA binding, fluorescence polarization. AID 2014. inhibition, % at 35 µM;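 active = 50% or more with normal probe brightness, or confirmed in later tests; about a fifth of its hits are not listed in these tables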;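 note: calls also rest on retests at 20 µM and on dose response follow-up; controls were probe without protein and protein plus probe with vehicle; some compounds called inactive have numbers as strong as hits; many hits fall short of the cut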
# UUG fidelity: modulators of start codon recognition fidelity in yeast. AID 602363. activity score, % at 18.7 µM. S. cerevisiae UUG-firefly luciferase reporter, luminescence/redox ratio. hit rate 0.13% among 350,000;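 active = replicate mean at a twofold rise or more, about +100% in these data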;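 note: firefly luciferase made from a UUG start codon reports start codon fidelity; reporter light over untreated wells divided by growth signal over untreated wells; some hits fall short of that in this replicate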
# eIF4H FP inh retest: recorded beside eIF4H FP inh, whose call it bears; inhibition, %; compound at 20 µM; confirmation average;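 mean of two retest wells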
# PABP FP inh retest: also measured in PABP FP inh; calls as there; inhibition, %; compound at 20 µM; confirmation repeats;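 mean of two retest wells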
# MT1-MMP act inh RFP: further read-out of MT1-MMP act inh, marked with its call; RFP signal change, %; measured here: RFP expression control read;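 0 = vehicle wells; hits needed this value within 50% of zero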
# The depositor's hits bear a star; i = inactive; / = no result given; & = joins results of further samples; [ ] = another dose, or the depositor's remark.
SMILES,CSC inhib,eIF4H FP inh,Rce1 inhib,HIV Env fusion,MT1-MMP act inh,MT1-MMP act inh RFP,PABP FP inh,UUG fidelity,others
N#Cc1cc(NC(=O)c2ccc(Cl)cc2)ccc1Sc1ccccc1,/,/,/,13.8,-2.7,-27.8,/,-9.9&-9.4,
Cc1ccc(CNc2nc3ccc(C)cc3n3cnnc23)cc1,-0.5,-7.0,i,-22.4,5.2,3.5,-1.2,-15.2,
Cc1ccc(S(=O)(=O)Nc2nc(C)c(C(=O)NNS(=O)(=O)c3cc(C)ccc3C)s2)cc1,-7.8,11.9,i,4.0,-3.7,2.0,-0.2,/,
Cc1c(C(=O)NC(=S)NCc2cccnc2)cccc1[N+](=O)[O-],2.3,-1.6,i,/,2.0,-1.7,1.8,5.6,
CC(=O)Nc1ccc(S(=O)(=O)N2CCN(S(=O)(=O)c3ccc(NC(C)=O)cc3)CC2)cc1,-17.6,-9.2,i,5.9,2.7,2.0,-2.7,-9.3,
Cc1ccc(C(C)C)c2c1C(c1ccc3c(c1)OCO3)CC(=O)O2 (stereo not given),/,/,/,12.6,-0.6,-5.1,/,-5.1,
Cc1cc(C)n2nc(SCC(=O)N(CCC#N)c3ccc(F)cc3)nc2n1,/,/,/,2.1,9.3,0.2,/,-6.8,
CCNc1nc(Sc2ccc(C)cc2)cc(C(F)(F)F)n1,51.8,-3.3,i,i,-31.5,-26.1,-8.3,-13.2,
OCCc1c[nH]c2ccc(C(F)(F)F)cc12,-2.2,-1.8,i,13.3,6.3,4.1,3.8,-9.6,
CN(C)N=Nc1ccc(S(N)(=O)=O)cc1,5.2,-1.2,i,-19.5,2.2,6.0,2.9,-30.0,
Cc1ccc(S(=O)(=O)CCC(=O)OC(C)c2nnc(-c3cccs3)o2)cc1 (stereo not given),-13.5,/,/,-7.0,-0.7,4.1,/,-12.8,
CCc1nnc(NC(=O)c2cc3ccccc3oc2=O)s1,-10.4,-3.8,i,-38.5,0.1,-1.3,-2.0,-17.9,
CCCCN(C(=O)CSc1cc(C)c2ccc(OC)cc2n1)c1c(N)n(Cc2ccccc2)c(=O)[nH]c1=O,-20.6,2.0,i,-20.9,-12.9,-6.7,1.3,-8.0,
Cc1ccc2c(C(=O)CN3CCCC3)c(C)[nH]c2c1,/,2.5,i,/,-0.4,1.3,2.6,-17.2,
COc1ccccc1NC(=O)CCCn1c(=S)[nH]c2ccccc2c1=O,-6.2,-4.9,i,-3.7,-4.2,0.7,-4.4,-21.2,
CCN(CC)C(=O)Cn1cc(C(=O)C(=O)N2CCN(c3ccc(OC)cc3)CC2)c2ccccc21,-0.9,-18.2,i,-5.3,-3.4,-1.8,0.0,2.5,
CC(C)(C)[C@H]1C=C(C(=O)O)O[C@@H](OCc2ccc(CO)cc2)C1,3.0,/,i,-15.1[16.7 µM],2.0,2.9,/,13.2&-15.5,
CCC(=O)N1CCN(c2ccccc2NC(=O)c2ccc([N+](=O)[O-])o2)CC1,-8.7,4.9,i,2.8,4.7,0.1,12.5,0.5,
CN(C)CCN1CCN([C@H]2CS(=O)(=O)N[C@@H]2COCc2ccccc2)CC1,/,/,/,-0.4,-0.7,6.1,/,-0.4,
CCOc1cc(NC(=S)NCC2CCCO2)c(OCC)cc1NC(=O)c1ccccc1C (stereo not given),-2.6,-10.0,i,-84.0,8.6,0.7,-3.6,-16.8,

# In the list so far, these have a halogen.
SMILES,CSC inhib,eIF4H FP inh,Rce1 inhib,HIV Env fusion,MT1-MMP act inh,MT1-MMP act inh RFP,PABP FP inh,UUG fidelity,others
N#Cc1cc(NC(=O)c2ccc(Cl)cc2)ccc1Sc1ccccc1,/,/,/,13.8,-2.7,-27.8,/,-9.9&-9.4,
Cc1cc(C)n2nc(SCC(=O)N(CCC#N)c3ccc(F)cc3)nc2n1,/,/,/,2.1,9.3,0.2,/,-6.8,
CCNc1nc(Sc2ccc(C)cc2)cc(C(F)(F)F)n1,51.8,-3.3,i,i,-31.5,-26.1,-8.3,-13.2,
OCCc1c[nH]c2ccc(C(F)(F)F)cc12,-2.2,-1.8,i,13.3,6.3,4.1,3.8,-9.6,

# The results go on:
SMILES,CSC inhib,eIF4H FP inh,Rce1 inhib,HIV Env fusion,MT1-MMP act inh,MT1-MMP act inh RFP,PABP FP inh,UUG fidelity,others
Cc1ccc(C)c(NC(=O)CSc2nccn2Cc2ccco2)c1,-30.5,-11.6,i,-28.3,-3.0,-1.5,5.0,-8.6,
COc1ccc(/C=C2/SC(=S)N(n3c(C)ccc3C)C2=O)cc1,5.7,-0.6,i,/,-6.4,-9.5,-1.0,-14.5,
O=C(OCc1ccc(-c2ccccc2)cc1)c1cccc(O)c1,41.0,-0.5,i,-56.0,-3.6,-4.7,10.5,-7.9,
COc1ccc(C(=O)C2CCCN(Cc3cccn3-c3nccs3)C2)cc1OC (stereo not given),6.0,-4.7,i,9.7,-4.3,4.0,-4.0,8.0,
Cc1oc(-c2ccccc2)nc1C(=O)OCC(=O)NCc1ccc(Cl)cc1,/,/,/,16.4,-6.5,-0.8,/,-29.0,
Cc1nn(C)cc1C(C(=O)NC1CCCCC1)N(Cc1ccccc1Cl)C(=O)c1cnccn1 (stereo not given),-12.3,-2.6,i,-12.3,2.5,1.4,-0.4,/,
Cc1nn(C)c(C(=O)NCc2ccc(Cl)cc2)c1Cl,-6.2,1.6,i,26.9,-5.2,-21.0,17.6,-12.4,
COc1ccc(C(=O)N2CCN(Cc3ccccn3)CC2)cc1,-16.4,-3.0,i,-1.3,-1.2,-0.4,-6.1,-8.1,
Cc1cc2c(SCC(=O)NC3CCCCC3)ncnc2s1,-5.9,-5.5,i,8.2,-3.0,-2.5,-0.9,-8.4,
CC(=O)Nc1cccc(-c2ccnc3c2CC(C(=O)Nc2cccc(N(C)C)c2)O3)c1 (stereo not given),/,/,/,5.2,7.0,-13.6,/,11.8,
CC(C)N(Cc1ccccc1)C(=O)CN1C(=O)COc2ccc(S(=O)(=O)NC3CCCC3)cc21,-6.4,-2.1,i,-1.0,-0.2,-2.1,-0.4,-9.9,
Cc1cc(C(=O)Nc2ccc(F)cc2F)on1,-6.4,-6.8,i,7.5,-0.1,2.8,-1.3,-13.8,
O=C(Nc1ccccc1C(=O)N1CCOCC1)C1CC(=O)N(C2CCCC2)C1 (stereo not given),1.0,-0.2,i,-46.0,-1.2,6.2,-5.2,-19.9,
CCC1CCCCN1C(=O)CSc1nc(N)cc(N)n1 (stereo not given),0.4,3.0,i,-4.0,-3.9,-4.1,-2.5,/,
O=C(NNC(=O)c1cccnc1)Nc1cccc2ccccc12,-11.1,14.8,i,12.3,-2.8,-0.1,1.0,-17.2,
CC(=O)c1cc2c(cc1NS(=O)(=O)c1cccc(C(=O)O)c1)OCO2,-7.8,-4.7,i,13.1,1.4,3.1,-10.0,-14.2,
COc1ccc(C(=O)Nc2ccccc2C(=O)Nc2ccccc2C(=O)O)cc1,22.1,-9.4,i,-68.8,-3.8,-5.3,32.7,-13.4,
Nc1nc(C(c2ccccc2)c2ccccc2)cs1,-8.6,7.0,i,-3.2,-8.2,-3.3,4.9,-6.7,
CCCCCN1CC(=O)N2Cc3[nH]c4ccccc4c3C[C@H]2C1=O,-12.6,-14.9,i,2.2,3.9,2.8,-11.8,3.3,
CC(Nc1nc(-c2ccc(F)cc2)cs1)c1nc2cc(C(F)(F)F)ccc2n1CCOCCO (stereo not given),7.5,/,i,3.1,0.1,-17.1,/,-20.1,
COCC(=O)N1CCC(Oc2ccc(C(=O)NC(C)c3nccs3)cc2)CC1 (stereo not given),-18.6,0.3,i,-6.1,4.2,6.5,2.8,-15.3,
CCC1(c2ccccc2)NC(=O)N(CC(=O)NCc2ccc(C)cc2)C1=O (stereo not given),-10.4,3.0,i,-46.9,3.9,-1.0,-1.6,-11.3,
Cc1ccc(N(C)C(=O)N2CCN(S(=O)(=O)c3c(C)cc(C)cc3C)CC2)cc1,-0.7,1.3,i,-112.3,-12.0,-10.5,-4.6,-1.0,
COC(=O)c1cn(CC(=O)N2CCCCC2C)c2ccccc12 (stereo not given),4.2,-7.8,i,/,-0.8,3.9,-1.1,-18.8,
Cc1nn(-c2ccccc2)c(Cl)c1/C=N/Nc1ccc(S(=O)(=O)Nc2ccccc2C(=O)O)cc1[N+](=O)[O-],96.4*,91.5*,i,12.2,17.1,-0.5,54.3*,-15.1,eIF4H FP inh retest=100.3*;PABP FP inh retest=104.5*
NC(=O)c1cc(Cl)ccc1OCC(=O)NC1CC1,-1.4,/,/,-25.3,3.5,2.9,/,-14.7,
COc1ccc(CNC(=O)c2nn(C)c3c2CS(=O)(=O)c2ccccc2-3)cc1,-2.1,-13.0,i,-22.4,2.5,0.5,2.9,11.8,
N#Cc1ccsc1NC(=O)CSc1ncnc2ccccc12,3.7,44.6,i,/,-4.6,-4.4,47.1,-1.1,
CCOC(=O)c1c(NC(=S)Nc2ccccc2)sc2c1CCN(CC)C2,-10.8,61.3,i,/,-23.6,6.7,35.8,-12.1,eIF4H FP inh retest=41.5;PABP FP inh retest=48.5
COc1ccccc1Nc1nc2cc(C)ccc2cc1C#N,9.8,2.6,/,9.0,-0.3,2.4,15.5,/,
CCCOc1ccc(C(=O)Nc2ccc(N(C)C)cc2)cc1,42.7,-1.3,i,/,0.9,2.2,-2.0,-9.0,
CC(=O)NC12CC3CC(C1)CC(C(=O)N(C)CC(=O)Nc1ccccc1Cl)(C3)C2,-2.6,/,i,/,1.3,3.6,/,-19.2,
CC(=O)OC1OCCOC1NC(=S)Nc1cccc(C(F)(F)F)c1 (stereo not given),0.3,7.2,i,-12.3,-2.0,0.5,-1.7,/,

# Among those listed so far, six contain fluorine.
SMILES,CSC inhib,eIF4H FP inh,Rce1 inhib,HIV Env fusion,MT1-MMP act inh,MT1-MMP act inh RFP,PABP FP inh,UUG fidelity,others
Cc1cc(C)n2nc(SCC(=O)N(CCC#N)c3ccc(F)cc3)nc2n1,/,/,/,2.1,9.3,0.2,/,-6.8,
CCNc1nc(Sc2ccc(C)cc2)cc(C(F)(F)F)n1,51.8,-3.3,i,i,-31.5,-26.1,-8.3,-13.2,
OCCc1c[nH]c2ccc(C(F)(F)F)cc12,-2.2,-1.8,i,13.3,6.3,4.1,3.8,-9.6,
Cc1cc(C(=O)Nc2ccc(F)cc2F)on1,-6.4,-6.8,i,7.5,-0.1,2.8,-1.3,-13.8,
CC(Nc1nc(-c2ccc(F)cc2)cs1)c1nc2cc(C(F)(F)F)ccc2n1CCOCCO (stereo not given),7.5,/,i,3.1,0.1,-17.1,/,-20.1,
CC(=O)OC1OCCOC1NC(=S)Nc1cccc(C(F)(F)F)c1 (stereo not given),0.3,7.2,i,-12.3,-2.0,0.5,-1.7,/,
